# Bm FixLJ act: activators of Burkholderia fixLJ two-component system. B. multivorans fixK-promoter GFP reporter, 18 h; hits give high values. z-score (concentration not given with the values). hit rate 0.3% among 29,000. AID 1918990;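 active means replicate mean overnight rise in green fluorescent reporter signal, 3 or more SD over negative controls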;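 further: score is relative to vehicle wells of the plate; 300 nL library stock went into each well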
# Active calls of the source: *; & = joins results of further samples. Some of the compounds tested (hit frequency here may not be typical).
SMILES,Bm FixLJ act
Cc1cc(NC(=O)NCCCn2cnnc2)n(C(C)C2CC2)n1 (stereo not drawn),-0.1
COc1cccc(NC(=O)C2CCN(S(=O)(=O)c3cccc4nonc34)CC2)c1,-1.2
Cc1ccc(CN2CCSc3ccc(C(=O)NCC(C)c4ccccc4)cc32)cc1 (stereo not drawn),1.7
O=C(NCc1ccccn1)c1cc2n(n1)CCN(C(=O)C1CCNCC1)C2,-0.84
CCCCc1nc(C)cc(NCCNC(=O)c2ccc(O)cc2)n1,-1
COCCCNC(=O)CSc1nc(-c2ccccc2)[nH]c1-c1ccc(C)cc1,-0.29
O=C(Nc1ccc(F)c(Cl)c1)C1CCN(C(=O)c2ccc(F)cc2)CC1,-1.5
Cc1ccccc1OCC(=O)Nc1sc2c(c1C(=O)OC(C)C)CCCC2,0.56
CN(C)c1ncc(C=CC(=O)NC2(C(=O)O)CCCC2)cn1,-0.49
CCc1ccc(NS(=O)(=O)c2ccc3[nH]cc(C(=O)N4CCCCCC4)c(=O)c3c2)cc1,-0.84
CCCN1CCN(CC2=C(C(=O)OCC)C(c3ccc(Cl)cc3)NC(=O)N2)CC1 (stereo not drawn),0.37
CC(C)c1ccc(OCC(=O)Nc2c(C(=O)c3ccc(F)cc3)oc3ccccc23)cc1,-3.3
COc1ccc(NC(=O)c2nnn(Cc3nc(-c4cc(OC)c(OC)c(OC)c4)oc3C)c2C)cc1Cl,0.48
Cc1nnc(-c2ccc(C)c(NC(=O)N3CCC4(CN(C)C(=O)O4)C3)c2)o1 (stereo not drawn),-0.56
CCC1CCC(C(=O)N2CC(O)C(Cc3ccnc4ccccc34)C2)CC1 (stereo not drawn),-0.78

# The closing 6 entries of the section above come first, to join the parts.
SMILES,Bm FixLJ act
CCc1ccc(NS(=O)(=O)c2ccc3[nH]cc(C(=O)N4CCCCCC4)c(=O)c3c2)cc1,-0.84
CCCN1CCN(CC2=C(C(=O)OCC)C(c3ccc(Cl)cc3)NC(=O)N2)CC1 (stereo not drawn),0.37
CC(C)c1ccc(OCC(=O)Nc2c(C(=O)c3ccc(F)cc3)oc3ccccc23)cc1,-3.3
COc1ccc(NC(=O)c2nnn(Cc3nc(-c4cc(OC)c(OC)c(OC)c4)oc3C)c2C)cc1Cl,0.48
Cc1nnc(-c2ccc(C)c(NC(=O)N3CCC4(CN(C)C(=O)O4)C3)c2)o1 (stereo not drawn),-0.56
CCC1CCC(C(=O)N2CC(O)C(Cc3ccnc4ccccc34)C2)CC1 (stereo not drawn),-0.78
COc1ccc(-c2nc(CSCC(=O)N3CCN(c4ccccc4)CC3)c(C)o2)cc1,-0.96
COc1ccc(C(NC(=O)CCn2cnnn2)C2CC(O)C2)cc1F (stereo not drawn),-2.5
CCOCC(=O)NC1COCC1Cc1ccnc2ccccc12 (stereo not drawn),-1.4
CCC(=O)N1CCc2cc(S(=O)(=O)CCC(=O)Nc3cc(Cl)ccc3OC)ccc21,-1.4
CC(C)CN1CCN(C(=O)CCc2cccnc2)C2CS(=O)(=O)CC21 (stereo not drawn),0.97
COc1ccc(C(=O)n2nc(-c3ccco3)nc2NCc2cccs2)cc1OC,0.28
CC(C)N(Cc1ccccc1)C(=O)Cn1ncc2c3ccccc3n(Cc3ccccc3)c2c1=O,0.03
COc1ccc(CCNC(=O)c2ccc(Nc3nc4ccccc4n4nnnc34)cc2)cc1OC,0.41
Oc1ccc(NCc2ccccc2OCc2ccc(Cl)cc2)cc1,-0.08
Fc1ccc(Nc2c3c(nc4nncn24)CCC3)cc1,-0.62
COCCN1CC2(CCC1=O)CCN(C(=O)CCn1cccn1)CC2,-1.3
Clc1ccc(CN2CCC(CNc3ncnc4onc(-c5ccc(Cl)cc5)c34)CC2)cc1,-1.3
COC(=O)Cn1ccc2cc(S(=O)(=O)N3CCCCCC3)ccc21,-0.51
Cc1ccc2[nH]c(=O)cc(-c3nc(C)nn3CC(F)(F)F)c2c1,-0.69
O=C(c1ccc2nc[nH]c2c1)N(Cc1ccccc1)Cc1nccs1,-1.7
Cc1cc(C)cc(NC(=O)CCc2nnc3n(CC(C)C)c(=O)c4ccccc4n23)c1,-0.39
COc1cc2nc(Nc3cccc(C)c3)nc(N)c2cc1OC,-0.57
COc1ccc(CNC(=O)CSc2nc(-c3ccc(OC)cc3)cc(C(F)(F)F)n2)cc1,-1.3
O=C(Oc1ccccc1C(=O)O)c1ccccc1O,-1.2
O=C(Nc1cc(-c2nc3ccccc3o2)ccc1Cl)c1ccc(N2CCCCC2)c([N+](=O)[O-])c1,-1.7
COC(=O)C1Cc2nc[nH]c2CN1C(=O)c1cn[nH]c1C1CCCCC1 (stereo not drawn),0.39
Cc1ccc(-c2noc(CSc3nnc(C)n3-c3ccc(C)cc3)n2)cc1,-0.68
CCOC(=O)C(Cc1c[nH]c2ccccc12)NC(=O)COc1ccc(CC)cc1 (stereo not drawn),-0.82
O=C(CCCn1cncn1)N1CCN(C(=O)c2cccs2)CC1,0.06
COCCCn1c(=N)c(C(=O)NCc2cccnc2)cc2c(=O)n3cccc(C)c3nc21,-1.4
COc1cccc(C(=O)Nc2cc3c(cc2C(=O)c2ccc(C)cc2)OCCO3)c1,-1.6
CCCNC(=O)c1cc2n(n1)CCCN(Cc1ccc(F)cc1)C2=O,-1.5
Cc1ccc(NC(=O)c2oc3ccccc3c2NC(=O)c2cc3ccccc3o2)cc1,1.4
CCOC(=O)C1CCN(C(=O)Cn2nc(CC)n3c(cc4sccc43)c2=O)CC1,0.38
CCc1ccc(C2CC(=O)Oc3c2c(=O)n(C)c2ccccc32)cc1 (stereo not drawn),-2.3
COc1ccc(Cl)cc1NC(=O)CSc1nc(-c2ccccc2)c2ccccc2n1,0.11
CCCCC1CCC(C(=O)N2CC(=O)Nc3ccc(Br)cc3C2c2ccc(F)cc2)CC1 (stereo not drawn),-0.71
COCC(=O)NCc1cc2n(n1)CCN(Cc1ccc(F)c(C)c1)C2,1.4
Cc1c2cnn(-c3ccccc3)c(=O)c2c(C)n1CCCC(=O)Nc1cc(F)ccc1F,-0.98
NS(=O)(=O)CC1CCN(C(=O)c2[nH]cnc2-c2ccccc2)C1 (stereo not drawn),-0.31
Cc1ccc(S(=O)(=O)CCC(=O)NCCc2csc(N)n2)cc1,-0.57
COc1ccc(C(=O)N2CCCC(c3nnc(Cn4ccnc4)n3C)C2)cc1 (stereo not drawn),0.38
CCNC(=O)c1ccnc(NCCc2csc(CC)n2)c1,-1.9
CCOC(=O)C1CCCN(CC(=O)Nc2cc(C)c3c(=O)oc4ccccc4c3n2)C1 (stereo not drawn),0.33
COc1ccc(C(=O)N(Cc2sccc2C)C2CCS(=O)(=O)C2)cc1 (stereo not drawn),-1.9
COc1ccc(NS(=O)(=O)c2ccc(NS(=O)(=O)c3ccc4c(c3)OCCO4)cc2)cc1,-1.7
COc1ccc(N2CCN(C(=O)Cc3coc4ccc(C)cc34)CC2)cc1,0.96
Cc1ncsc1CCC(=O)N(Cc1ccccc1)C1CCCCC1O (stereo not drawn),0.49
CCCCn1c(NCc2ccc(N(C)C)cc2)nc2ccccc21,-2.6
CCn1c(CN(C)C)nnc1C1CCN(C(=O)Cc2cccc(F)c2)CC1,-0.4

# Given tab-delimited: 3 of the compounds above.
Structure	Bm FixLJ act
CCNC(=O)c1ccnc(NCCc2csc(CC)n2)c1	-1.9
CCOC(=O)C1CCCN(CC(=O)Nc2cc(C)c3c(=O)oc4ccccc4c3n2)C1 (stereo not drawn)	0.33
COc1ccc(C(=O)N(Cc2sccc2C)C2CCS(=O)(=O)C2)cc1 (stereo not drawn)	-1.9

# Remaining list, next part:
SMILES,Bm FixLJ act
COc1ccc(NC(=O)C(NC(=O)Cc2cccs2)c2ccc(OC)cc2)cc1 (stereo not drawn),2.6
Cc1ccc(N2CC(c3nnc(Cc4ccc(Cl)cc4)o3)CC2=O)cc1 (stereo not drawn),0.58
Cc1nnc2c3ccccc3nc(N3CCN(c4ccccc4)CC3)n12,0.11
Cc1c2cnn(CC(=O)NCC(C)c3ccccc3)c(=O)c2c(C)n1Cc1cccc(Cl)c1 (stereo not drawn),-1.8
Cc1ccc(-c2nc(-c3cc4cccc(OCc5ccc(F)cc5)c4oc3=O)no2)cc1,-0.24
Cc1cc(N2CCN(C)CC2)nc2ccc(NC(=O)c3ccccc3F)cc12,-0.68
Cc1cccc(C(=O)n2nc(-c3ccco3)nc2NCc2ccccc2)c1,-2.3
COCCn1cnnc1C(C)NC(=O)Nc1cc(F)cc(F)c1F (stereo not drawn),-0.38
CO[C@@]12CCC(OCC3CC3)CC1N(C(=O)Cn1ccc(C)n1)CC2 (stereo partly drawn),1
O=C(O)C1CN(C(=O)c2cccc(OC(F)F)c2)CC12CCOCC2 (stereo not drawn),-1.4
CCOC(=O)c1ccc(NS(=O)(=O)c2ccc3c(c2)OCCO3)cc1,-0.6
COc1ccc(-c2nc3ccccc3n3c(-c4cccc(C)c4)c4c(=O)n(C)c(=O)n(C)c4c23)cc1,-1.5
O=C(NCCc1nc2ccccc2n1Cc1ccc(Cl)cc1)c1ccccc1,-0.78
COCc1nc(C2CC(N)C2)cc(N2CCC(c3ccccc3OC)CC2)n1 (stereo not drawn),-0.96
CCOC(=O)c1cccc(NC(=O)c2nn(-c3ccc(OC)cc3)c(=O)c3c2c2ccccc2n3C)c1,-1.4
O=C(NC(c1ccc2c(c1)CCO2)C1CC(O)C1)c1cccc(O)c1 (stereo not drawn),-0.57
Cc1cc2oc(C(=O)N(Cc3ccccc3)C3CCS(=O)(=O)C3)cc(=O)c2cc1C (stereo not drawn),-1.3
CCC1CCc2nc3sc(C(=O)Nc4ccc(F)c(F)c4)c(N)c3cc2C1 (stereo not drawn),-1.8
COc1cc(C)cc2oc(=O)c(CC(=O)NCCc3ccc(Cl)cc3)c(C)c12,-0.41
CCc1ccccc1Nc1nc2ccccc2c2nncn12,-0.65
Cc1ccccc1CNC(=O)C(C)N(c1ccccc1)S(C)(=O)=O (stereo not drawn),-0.29
O=C(Nc1c(-c2ccc(F)cc2)nc2ccccn12)c1cccc(F)c1,2.8
COc1ccc(C(CNC(=O)c2oc3ccccc3c2C)N2CCCCC2)cc1 (stereo not drawn),-2
Cc1cc(=O)n2nc(N(C)CC(=O)NCc3ccc(Cl)cc3)sc2n1,-2.4
Cc1ccn2c(Nc3ccc4c(c3)OCCO4)c(-c3cccs3)nc2c1,2
COc1ccc2c(c1)sc1ncc(C(=O)NCc3ccc(Cl)cc3)c(=O)n12,-0.49
O=C(CCNC(=O)c1ccc(F)cc1)NCCc1cnccn1,-1.6
CCOc1ccc(NC(=O)N(Cc2cn(CC)c3ccccc23)C2CCCCCC2)cc1,1.9
COc1ccc(OCCn2cc(C(=O)c3ccco3)c3ccccc32)cc1,1.2
COc1cc(Cl)c(C)cc1NC(=O)Cn1cnc2sc(C)c(S(=O)(=O)N3CCCCC3)c2c1=O,1.1
Cc1nc(-c2cccc(C(=O)N3CCC(Oc4cccnc4)CC3)c2)nn1C,-1.1
CC(C)c1ccc(Nc2c(-c3ccco3)nc3ccccn23)cc1,-2.4
COc1ccc(-c2nc(-c3ccccc3)c(-c3ccc(O)cc3)[nH]2)cc1,-0.2
CC(c1ccc(-c2nc(C(=O)O)nn2C)cc1)N1CCCC1 (stereo not drawn),-0.54
Cc1nn(C)c(C)c1CCC(=O)NCC(c1ccccn1)N1CCOCC1 (stereo not drawn),0.02
Cc1ccc(C(=O)N(Cc2sccc2C)C2CCS(=O)(=O)C2)cc1 (stereo not drawn),1.4
CCCCN(CC)CCNC(=O)c1nn(-c2ccc(OC)cc2)c(=O)c2c1c1ccccc1n2C,-0.01
Cc1cccc(C)c1NS(=O)(=O)c1ccc(NS(=O)(=O)c2ccc3c(c2)OCCO3)cc1,-1.2
CCn1cc(C(=O)N2CCN(c3cccc(C)c3C)CC2)c2cc(OC)c(OC)cc2c1=O,2
Cc1c(C(=O)N(Cc2cccc(Cl)c2)Cc2ccco2)oc2ccccc12,0.71
Cc1ccc(CCNC(=O)C(NS(=O)(=O)c2ccc3c(c2)oc(=O)n3C)C(C)C)cc1 (stereo not drawn),-1.1
CCc1ccc(OCC(=O)Nc2cc(-c3nc4cc(C)ccc4o3)ccc2C)cc1,-2.7
Cc1ccc2nc(Cl)c3cc(C(=O)N4CCCC(C)C4)sc3c2c1 (stereo not drawn),-3.5
CCc1ccc2c(c1)c(=O)c(C(=O)c1ccc(C)cc1)cn2CC(=O)Nc1ccc2c(c1)OCCO2,-1.6
COc1ccc(N(CC(=O)N2CCN(c3cc(C)ccc3C)CC2)S(=O)(=O)c2c(C)noc2C)cc1,-0.74

# Fetched by compound from the list above (3):
SMILES,Bm FixLJ act
Cc1cccc(C)c1NS(=O)(=O)c1ccc(NS(=O)(=O)c2ccc3c(c2)OCCO3)cc1,-1.2
Cc1ccc(CCNC(=O)C(NS(=O)(=O)c2ccc3c(c2)oc(=O)n3C)C(C)C)cc1 (stereo not drawn),-1.1
Cc1nn(C)c(C)c1CCC(=O)NCC(c1ccccn1)N1CCOCC1 (stereo not drawn),0.02

# Other entries.
SMILES,Bm FixLJ act
CNc1nc2c(c(C(=O)N3CCCC3)n1)CN(CCC1COCCO1)CC2 (stereo not drawn),0.52
COc1ccc(Cl)cc1C(=O)NCCc1ccc(S(=O)(=O)NC(=O)NC2CCCCC2)cc1,-1.2&0.55
Cc1cccc(-c2nc(CN3C(=O)CN=C(c4ccccc4)c4ccccc43)c(C)o2)c1,-0.64
CN(Cc1ccc2nsnc2c1)C(=O)c1cccc2c1NCCC2,-1.9
C=CCOc1cccc(C(=O)N2CC(N)CC2C(=O)NC(C)C)c1 (stereo not drawn),-1
Cc1ccc(SCCNC(=O)CN(c2cccc(C)c2C)S(C)(=O)=O)cc1,-1
COc1ccc(N2CCN(CC(O)COc3c(OC)cccc3OC)CC2)cc1 (stereo not drawn),-1
CCOC(=O)c1c(NC(=O)/C=C/c2ccc(OC)c(OC)c2)sc(C(C)=O)c1C,1.2
NC(N)=NC(N)=NCCc1ccccc1,-0.72
CN(Cc1ccccc1)c1nc(-c2ccc(F)cc2)cc(C(F)(F)F)n1,0.47
CO[C@@]12CCC(Oc3ccccn3)CC1N(C(=O)CCC1CCCC1)CC2 (stereo partly drawn),0.82
CCn1cc(C(=O)NC(c2cnc3ccccc3c2)C2CC(O)C2)cn1 (stereo not drawn),-0.49
Cc1ccc(C(=O)c2oc3ccccc3c2NC(=O)Cc2ccccc2)cc1,0.67

# Source: PubChem (ICCB-Longwood Screening Facility, Harvard Medical School)
